Screening data from PubChem.
KCNQ2 inh: KCNQ2 potassium channel inhibitors, primary screen, cell-based, CHO-K1, FluxOR thallium flux, B-score (AID 2156); Potassium voltage-gated channel subfamily KQT member 2 (Rattus norvegicus), O88943; 20 min; hits give low values; only compounds with negative scores are shown here; some inactives read as strong as hits; B-score at 10 µM; hit rate 1.1% among 310,000;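 active = fluorescence ratio B-score at most minus 3 library SDs, with starting brightness B-score within 2 library SDs, cut at about -5.5 in these data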
Target sequence (O88943 whole entry, looked up): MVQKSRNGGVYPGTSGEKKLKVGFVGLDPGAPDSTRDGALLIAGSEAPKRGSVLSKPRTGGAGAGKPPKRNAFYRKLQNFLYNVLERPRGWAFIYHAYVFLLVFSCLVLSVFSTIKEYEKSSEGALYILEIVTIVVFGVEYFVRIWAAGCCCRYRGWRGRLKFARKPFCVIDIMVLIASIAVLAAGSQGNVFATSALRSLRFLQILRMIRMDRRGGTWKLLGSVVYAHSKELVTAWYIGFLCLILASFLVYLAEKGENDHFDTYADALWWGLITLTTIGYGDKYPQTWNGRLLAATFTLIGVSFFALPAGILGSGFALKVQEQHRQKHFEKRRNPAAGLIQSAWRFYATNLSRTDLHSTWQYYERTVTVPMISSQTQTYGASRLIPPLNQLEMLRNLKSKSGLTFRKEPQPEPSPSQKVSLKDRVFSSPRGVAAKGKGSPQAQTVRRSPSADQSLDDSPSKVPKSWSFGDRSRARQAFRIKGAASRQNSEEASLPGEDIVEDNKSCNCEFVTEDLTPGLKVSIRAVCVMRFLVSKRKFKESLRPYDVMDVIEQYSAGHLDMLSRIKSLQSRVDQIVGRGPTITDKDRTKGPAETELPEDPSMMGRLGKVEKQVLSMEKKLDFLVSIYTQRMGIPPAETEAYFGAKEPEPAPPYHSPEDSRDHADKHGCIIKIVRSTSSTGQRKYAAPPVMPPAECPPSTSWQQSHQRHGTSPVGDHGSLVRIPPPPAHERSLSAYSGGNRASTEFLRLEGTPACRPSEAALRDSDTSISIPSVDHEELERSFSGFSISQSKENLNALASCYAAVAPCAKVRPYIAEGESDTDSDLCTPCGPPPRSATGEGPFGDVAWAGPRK
KCNQ2 inh baseline: also measured in KCNQ2 inh; calls as there; B-score; measured here: initial fluorescence intensity artifact check;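 brightness before thallium and not channel activity; 0 = typical well and far values either way flag optical interference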
Active calls of the source: *; i = inactive; & = joins results of further samples. The list is partial; the hit share may differ from the screen's.

| mol | KCNQ2 inh baseline | KCNQ2 inh |
| --- | --- | --- |
| c1coc(-c2nc3nc4ccccc4nc3n2CC2CCCO2)c1 (stereo not drawn) | -0.67 | i |
| O=C(/C=C/c1ccc(Cl)cc1)N(Cc1ccccc1)C1CCS(=O)(=O)C1 (stereo not drawn) | -0.62 | i |
| Cc1ccccc1CN(C)C(C)C(=O)Nc1ccccc1F (stereo not drawn) | 0.25 | i |
| O=C(NCCCN1CCOCC1)c1ccccc1NS(=O)(=O)c1cc([N+](=O)[O-])ccc1Cl | -0.01 | i |
| CNC(=O)COC(=O)c1c2c(nc3ccccc13)CCC2 | -0.02 | i |
| CC(C)C(NC(=O)C(c1ccccc1)c1ccccc1)c1nc2ccccc2[nH]1 (stereo not drawn) | 1.3 | i |
| C/C(=N\NC(=O)CN(c1ccccc1Br)S(C)(=O)=O)c1ccc2c(c1)OCCO2 | 1.95 | i |
| Cc1ccc(C(=O)CSC2=NC(N)=C(C#N)C3(CCCCC3)C2C(N)=O)cc1 (stereo not drawn) | -1.62 | i |
| O=C1CC(C(F)(F)C(F)(F)C(F)(F)C(F)(F)F)=Nc2ccccc2N1 | 0.17 | i |
| C(=C\c1ccccc1)/CSc1nnc(-c2cnccn2)n1Cc1ccco1 | -1.07 | i |
| CC1(C)CC2(C)OC(=N)C1(C#N)C2(C#N)C#N (stereo not drawn) | -0.08 | i |
| Fc1cccc(Cl)c1Cn1nnc2c(NCc3ccccn3)ncnc21 | 1.2 | i |
| CC(C)c1nnc(N2C(=O)C(O)=C(C(=O)c3cccs3)C2c2ccccc2)s1 (stereo not drawn) | 55.1 | i |
| CC1CCC(N(CCCN)Cc2ccco2)CC1C (stereo not drawn) | -1.85 | i |
| Cc1cccc(N2C(S)=C(C#N)C(=O)NC2c2ccco2)c1 (stereo not drawn) | 0.09 | i |
| CCOC(=O)C1C(=O)C=C(N2CCOCC2)CC1c1cccc(OC)c1 (stereo not drawn) | -0.08 | i |
| O=C(Nc1ccccc1)c1sccc1Oc1ccc([N+](=O)[O-])cc1F | -1.89 | i |
| CCOC(=O)c1sc2nc(C)nc(NCc3ccccc3)c2c1C | 0.34 | i |
| O=C(NCCc1c[nH]c2ccccc12)/C(=C\c1cccnc1)NC(=O)c1ccccc1Br | -0.88 | i |
| Cn1nnnc1SCc1c(F)cccc1F | -0.08 | i |

Arranged by formula weight (falling): 4 of the compounds above.
| mol | KCNQ2 inh baseline | KCNQ2 inh |
| --- | --- | --- |
| CC(C)c1nnc(N2C(=O)C(O)=C(C(=O)c3cccs3)C2c2ccccc2)s1 (stereo not drawn) | 55.1 | i |
| Cc1ccc(C(=O)CSC2=NC(N)=C(C#N)C3(CCCCC3)C2C(N)=O)cc1 (stereo not drawn) | -1.62 | i |
| CC(C)C(NC(=O)C(c1ccccc1)c1ccccc1)c1nc2ccccc2[nH]1 (stereo not drawn) | 1.3 | i |
| Cc1ccccc1CN(C)C(C)C(=O)Nc1ccccc1F (stereo not drawn) | 0.25 | i |

Going on with the list.
| mol | KCNQ2 inh baseline | KCNQ2 inh |
| --- | --- | --- |
| Cn1c(-c2ccccn2)[n+](C)c2ccccc21 | -0.22 | i |
| COc1ccc(C(=O)Nc2nc3c(s2)Cc2cc(OC)ccc2-3)cc1 | 0.06 | i |
| Cc1cccc(N2CCN(C(=O)c3c(-c4ccccc4Cl)noc3C)CC2)c1C | 3.21 | i |
| COc1ccccc1N1CCN(C(=O)C2CCC(Cn3c(=S)[nH]c4ccccc4c3=O)CC2)CC1 (stereo not drawn) | -1.5 | i |
| COc1ccc(OC)c(S(=O)(=O)NCCc2csc(-c3cccnc3)n2)c1 | -0.29 | i |
| O=C(Nc1ccccc1N1CCN(C(=O)c2ccccc2)CC1)c1cccc(Cl)c1 | 0.15 | i |
| COc1ccc(C(=O)N2CC=C(c3ccccc3)CC2)cc1S(=O)(=O)N1CCOCC1 | 1.27 | i |
| COc1ccccc1CN(C)C(=O)c1cc2ccccc2o1 | 0.67 | i |
| O=C(CSc1ncnc2nc[nH]c12)c1ccccc1 | 0.52 | i |
| CC(C)(C)n1nnnc1C(c1cccs1)N(Cc1ccccc1)Cc1cccnc1 (stereo not drawn) | -1.62 | i |
| OCC[C@@H]1C[C@@H](O)[C@H](O)[C@]2(Cc3ccccc3CCO2)O1 | -0.55 | i |
| CCOc1ccccc1N1CCN(Cc2ccc(OC)c(OC)c2OC)CC1 | -0.46 | i |
| COc1ccccc1NC(=O)N1CCN(c2ncccn2)CC1 | 0.76 | i |
| CN(Cc1ccccn1)C(=O)C1CCC(=O)N(Cc2cccc(C(F)(F)F)c2)C1 (stereo not drawn) | 1.22 | i |
| Cc1sc2ncn(CC(=O)OC(C)C(=O)NC(C)(C)C)c(=O)c2c1C (stereo not drawn) | -1.85 | i |
| COC(=O)c1cc(-c2ccc(Cl)cc2Cl)n[nH]1 | -2.54 | i |
| CCCCCc1nnc(NC(=O)C2COc3ccccc3O2)s1 (stereo not drawn) | 1.32 | i |
| O=C(c1ccc(N2CCN(S(=O)(=O)c3ccccc3)CC2)c([N+](=O)[O-])c1)N1CCOCC1 | 0.5 | i |
| C=CCN(C(=O)c1csnn1)C(C(=O)NCc1ccc(F)cc1)c1ccccc1 (stereo not drawn) | -1.77 | i |
| CCCC1C(=O)N(c2ccccc2)C1c1ccccc1 (stereo not drawn) | -0.09 | i |
| Cc1cc(C)n(CC(C)Nc2nc3nonc3nc2N2CCCCC2)n1 (stereo not drawn) | -0.29 | i |
| CCCC(=O)C1=C(O)C(C(=O)OC)C(C)(C)CC1=Nc1ccccc1 (stereo not drawn) | 0.16 | i |
| CCOc1cc(C(=O)OCC(=O)Nc2cc(C)on2)ccc1OCC(C)C | -0.89 | i |
| CCOC(=O)C1=C(COCCN)NC(C)=C(C(=O)OC)C1c1ccccc1Cl (stereo not drawn) | 0.29&-0.78 | i |
| FC(F)(F)c1cccc(N2CCN(c3nnnn3-c3ccccc3)CC2)c1 | -0.06 | i |
| COc1ccc(OC)c(CNc2nc3ccccc3n2CCN2CCCCC2)c1 | -0.37 | i |
| COc1cccc(C(=O)NCCS(=O)(=O)NCC2CCCO2)c1 (stereo not drawn) | 0.08 | i |
| O=C(NCCOC(=O)C1COc2ccccc2O1)c1cccnc1 (stereo not drawn) | 0.75 | i |
| CNC(=S)N(Cc1ccc2c(c1)OCO2)C1CC(=O)N(c2ccccc2)C1=O (stereo not drawn) | -1.13 | i |
| COc1ccc(N2CCN(CC(O)COc3ccc([N+](=O)[O-])cc3)CC2)cc1 (stereo not drawn) | 1.02 | i |
| COc1ccccc1OCCCCCc1c(C)n[nH]c1C | -0.04 | i |
| Cc1ccc2c(c1)C(c1ccncc1)=NNC(c1ccc(F)cc1)=N2 | 0.44 | i |
| O=C(CNC1C(=O)Nc2ccccc21)Sc1ccccc1 (stereo not drawn) | 0.91 | i |
| CN1C(=O)C(O)(CC(=O)c2cccc(-n3cccc3)c2)c2ccccc21 (stereo not drawn) | 0.82 | i |
| CN(C)C(CNC(=S)Nc1ccccc1Cl)c1cccnc1 (stereo not drawn) | -3.06 | i |
| Cc1nn(Cc2ccc(C(=O)N3CCOCC3)o2)c(C)c1Br | 0.04 | i |
| CCC(C)[C@H](NC(=O)Nc1cccc(Cl)c1)C(=O)O (stereo partly drawn) | 2.38 | i |
| CSCC[C@H](NC(=O)OC(C)(C)C)c1nnc(SCC(=O)Nc2ccc(C)cc2C)o1 | 0.45 | i |
| O=Cc1ccc(N2Cc3ccccc3C2)cc1 | -0.24 | i |
| COc1ccc(N2C(=O)CC(N(CCc3ccccc3)C(=O)c3ccccc3)C2=O)cc1 (stereo not drawn) | -0.69 | i |
| CCN(C(=O)C1CCCN(c2nc(-c3ccc(OC)cc3)no2)C1)c1ccc(OC)cc1 (stereo not drawn) | 0.08 | i |
| Cc1c(C(=O)Nc2ccccc2)cnn1-c1ccccc1 | -1.45 | i |
| O=C(O)c1cccc2c1C(=O)N(c1ccccc1)C2 | 0.06 | i |
| O=C(c1ccc(NC2=NC3CS(=O)(=O)CC3S2)cc1)N(CCO)Cc1ccccc1 (stereo not drawn) | 0.68 | i |
| Cn1c(CCc2ccccc2)nnc1SCC(=O)N1CCOCC1 | 0.31 | i |
| COc1ccc(C(=O)CC(=O)C(=O)Nc2ccc(Cl)cc2)cc1 | -1.65 | i |
| COc1ccc(C)cc1S(=O)(=O)NC(C)c1cnn(-c2ccccn2)c1C (stereo not drawn) | 1.09 | i |
| O=[N+]([O-])c1ccc(C=Nc2cccc3ccccc23)s1 | -0.05 | i |
| COc1ccc(NC(=S)N2CCCC(CO)C2)c(OC)c1 (stereo not drawn) | 1.37 | i |
| Cc1ccc(S(=O)(=O)CCN2CCC(O)(c3ccccc3)CC2)cc1 | 0.46 | i |
| Cc1ccsc1/C=N/N1CCN(c2ccccn2)CC1 | 0.56 | i |
| CCOC(=O)c1cc(S(=O)(=O)NCC2CCN(Cc3cccc(C)c3)CC2)cn1C | 0.57 | i |
| COc1ccc2c(c1)[nH]c1c(=O)n(CCCn3ccnc3)cnc12 | 7.01 | i |
| CCC(CC)NC(=O)c1cccc([N+](=O)[O-])c1C | 1.54 | i |
| COc1ccc(-c2cc(C(=O)Nc3ccc(OC)cc3OC)no2)cc1 | 0.12 | i |
| Cc1ccc(-n2c(SCC(N)=O)nnc2-c2ccco2)cc1 | -0.23 | i |
| NC(=O)C[C@@H]1N[C@]2(C(=O)Nc3ccccc32)[C@@H]2C(=O)N(c3cc(C(F)(F)F)ccc3Cl)C(=O)[C@H]12 | -0.36 | i |
| Cc1ccsc1-c1nc(CSCC(=O)N2CCN(c3ccccc3)CC2)c(C)o1 | -2.33 | i |
| Cc1cccc(OCCC(=O)Nc2c(C)n(C)n(-c3ccccc3)c2=O)c1 | 0.65 | i |
| Cc1ccc(OCCn2cc(/C=C/C(=O)O)c3ccccc32)cc1 | 0.57 | i |

Record cards, as listed above. Screens in order: KCNQ2 inh baseline | KCNQ2 inh
`CSCC[C@H](NC(=O)OC(C)(C)C)c1nnc(SCC(=O)Nc2ccc(C)cc2C)o1` is listed as 0.45 | i
`COc1ccccc1OCCCCCc1c(C)n[nH]c1C` is listed as -0.04 | i
`CCOC(=O)C1=C(COCCN)NC(C)=C(C(=O)OC)C1c1ccccc1Cl` (stereo not drawn) is listed as 0.29&-0.78 | i
`COc1ccc2c(c1)[nH]c1c(=O)n(CCCn3ccnc3)cnc12` is listed as 7.01 | i
`FC(F)(F)c1cccc(N2CCN(c3nnnn3-c3ccccc3)CC2)c1` is listed as -0.06 | i

The list goes on.
| mol | KCNQ2 inh baseline | KCNQ2 inh |
| --- | --- | --- |
| COc1ccc(NC(=O)c2ccco2)cc1NC(=O)c1cccc(OC(C)C)c1 | 0.27 | i |
| Fc1ccc(-[n+]2nc(Nc3ccccc3)sc2-c2ccc(OCc3ccccc3)cc2)cc1 | -0.08 | i |
| COc1ccc(-c2cc(C(=O)NC3=NCCS3)c3ccccc3n2)cc1OC | -1.16 | i |
| N/C(=N\OC(=O)c1ccccc1Br)c1ccc([N+](=O)[O-])cc1 | 0.35 | i |
| O=C1c2cccc([N+](=O)[O-])c2C(=O)N1CCO | 0.44 | i |
| CCCCCOC(=O)C1[C@H]2C(=O)N(c3ccccc3CC)C[C@]23C=C[C@H]1O3 (stereo partly drawn) | -0.42 | i |
| O=C(Cc1ccccc1)Nc1ccccc1C(=O)O | -0.16 | i |
| CC1SCC(=O)N(CC(=O)NCc2ccccc2)C1=O (stereo not drawn) | 1.14 | i |
| COc1ccc(NC(=O)c2ccc(CNc3c(NC4CCCCC4)c(=O)c3=O)cc2)c(OC)c1 | 1.17 | i |
| Cc1nc(NC(=O)c2ccccc2)sc1C1(C)CC(c2c(Cl)cccc2Cl)=NO1 (stereo not drawn) | -0.21 | i |
| COc1ccccc1NC(=O)CN(c1ccc([N+](=O)[O-])cc1)S(=O)(=O)c1ccccc1 | 1 | i |
| COc1cccc(-c2nc(CSCC(=O)NCC3CCCO3)c(C)o2)c1 (stereo not drawn) | 0.05 | i |
| COc1ccc(C(=O)n2nc(C)c(Br)c2C)cc1 | 0.02 | i |
| Cc1ccc(C(=O)Nc2ccccc2-c2ccccc2)cc1[N+](=O)[O-] | 0.7 | i |
| COc1ccc(OC)c(/C=N/NC(=O)c2cc3c(OC)c(OC)ccc3[nH]2)c1 | 1.27 | i |
| O=c1c2ccccc2cnn1-c1ccc(Cl)nn1 | -0.67 | i |
| N#CCCN(CCC#N)C(=O)C1c2ccccc2Oc2ccccc21 | 3.27 | i |
| Clc1ccc(Cl)c(Oc2ccc(Oc3nc(Cl)ccc3Cl)cc2)n1 | 1.47 | i |
| Cc1nn(-c2cccc(Cl)c2)c2c1C(c1ccncc1)C(C#N)=C(N)O2 (stereo not drawn) | -1.06 | i |
| CN(C)/C=C/C(=O)Oc1ccc(Cl)cc1Cl | -0.07 | i |
| CCC(C)(C)c1ccc(OCC(=O)Nc2ccncc2)cc1 | -0.69 | i |
| O=C(c1ccc(Cl)cc1)c1oc2ccccc2c1CS(=O)c1ccccc1 (stereo not drawn) | -2.12* | -5.68* |
| CNc1ncc(Cc2ccccc2)s1 | -0.04 | i |
| O=C(CCC1CCN(C(=O)c2ccccc2Cl)CC1)NCc1ccc(F)cc1 | 0.66 | i |
| CC(C)C(c1nnnn1C1CCCC1)N1c2ccccc2CC1C (stereo not drawn) | -0.64 | i |
| CN(Cc1cnccn1)Cc1cn(Cc2ccccc2)nc1-c1ccc2c(c1)OCO2 | 0.01 | i |
| O=C(Nc1ccccc1N1CCN(C(=O)c2ccccc2)CC1)c1cc(Br)ccc1Cl | 0.52 | i |
| CC(Cc1cccnc1)NC(=O)c1ccccc1OC1CCN(S(C)(=O)=O)CC1 (stereo not drawn) | 0.38 | i |
| O=C(c1ccccc1)N1CCN(c2ccc([N+](=O)[O-])c(NCc3ccco3)c2)CC1 | 0.01 | i |
| O=C(O)C1CC=CCC1C(=O)Nc1ccccc1 (stereo not drawn) | 2.13 | i |
| O=C(Nc1ccc(C(F)(F)F)cc1)N1CCN(c2ccnc3cc(Cl)ccc23)CC1 | -0.5 | i |
| COC(=O)c1ccccc1NC(=O)Nc1cc(C(C)(C)C)on1 | -0.95 | i |
| O=C(CN1C(=O)CSc2ccc(S(=O)(=O)N3CCOCC3)cc21)NCCCN1CCOCC1 | 0.68 | i |
| O=C(Nc1cccnc1)c1sc(Nc2ccccc2)nc1-c1ccccc1 | 0.36 | i |
